Screening results from PubChem BioAssay.
Rango-impB inh: qHTS Assay for Inhibitors of Rango (Ran-regulated importin-beta cargo) - Importin beta complex formation. Rango CFP/YFP FRET sensor + importin beta, 45 min. Potency, µM (doses to about 92.2 µM), without a hit: at the highest dose inhibition of complex formation. actives 0.031% (n = 340,000); active = rising FRET ratio curve, often small or poorly fitted; inconclusive = mostly compound fluorescence or quenching in the first reads; inactive = flat curves in all reads;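 note: potency is the fitted concentration of half-maximal effect; 0% = DMSO wells and 100% = buffer wells lacking importin beta; nearly all actives have a fitted effect of over 15% in size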
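Inhibition scored from the CFP 486 nm/YFP 530 nm FRET ratio 45 min after adding 0.125 microM importin beta to 50 nM Rango biosensor preincubated 5 min with compound (room temperature, PBS with DTT, Tween-20, BSA). No-importin wells as positive control.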
miR-21 reporter: qHTS Assay for Modulators of miRNAs and/orActivators of miR-21 | HeLa miR-21 FLuc reporter, luciferase, 48 h | Potency, µM (top dose mostly 38.3 µM), inactives show at the top dose reporter change, positive = more light | 340,000 tested, under 10 active | AID 2288, 2010; active = well fitted rising curve with a large enough effect; inconclusive = small, poorly fitted or top-dose-only effect; inactive = no such curve, though single readings can be large or run the other way;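 note: % of control where 0% means no effect; miR-21 action dims this reporter so a rising signal means less miR-21 action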
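HeLa miR-21-FLuc reporter line, endogenous miR-21; 2000 cells/well in DMEM/10% FBS; compound titration up to ~40uM final, 48 h, 37 degree Celsius; luciferase detection reagent, 15 min lysis, CCD luminescence.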
Rango dissoc inh: qHTS Assay for Inhibitors of RanGTP induced Rango (Ran-regulated importin-beta cargo) - Importin beta complex dissociation; Potency, µM (titrated, usually from 46.1 µM), for inactives: top-dose activity change, negative = inhibition; Biochemical FRET Rango-importin beta, RanGTP-induced dissociation; actives 0.071% (n = 340,000); Snurportin-1 (Homo sapiens) + GTP-binding nuclear protein Ran (Homo sapiens) + Importin …; active means falling FRET ratio curve, often poorly fitted, with flat reads before Ran was added; inconclusive means other falling curves, or compound fluorescence or quenching; inactive means flat or rising ratio curve;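 note: potency is the fitted concentration of half-maximal effect; % of control where 0% means no effect; nearly all actives have a fitted effect of over 45% in size; -100% = wells without RanGTP and RCC1; the record marks most hits as doubtful in a second field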
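FRET read at 45 min, room temperature: inhibitors block the CFP/YFP signal rise when RanGTP (0.6 uM Ran, 2 mM GTP, 0.2 uM RCC1) frees Rango (0.1 uM) from importin beta (0.25 uM). Pre-read after 5 min compound exposure flags interference.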
GLA inh pH 4.5: qHTS Assay for Inhibitors of Human alpha-Galactosidase at pH 4.5 | Alpha-galactosidase A (Homo sapiens), P06280 | activity change, negative = inhibition, % at 105 µM | 230,000 tested, under 10 active | purified enzyme, 4-MU-alpha-Gal fluorescence, pH 4.5; inconclusive = small, poorly fitted or top-dose-only inhibition, or a rising curve; inactive = flat fitted curve, though single readings scatter; no compound was filed as active;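 note: 0% = full activity with enzyme and -100% = basal without enzyme; dose as in the result columns while the protocol names 77 µM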
Target sequence (P06280 whole entry, looked up): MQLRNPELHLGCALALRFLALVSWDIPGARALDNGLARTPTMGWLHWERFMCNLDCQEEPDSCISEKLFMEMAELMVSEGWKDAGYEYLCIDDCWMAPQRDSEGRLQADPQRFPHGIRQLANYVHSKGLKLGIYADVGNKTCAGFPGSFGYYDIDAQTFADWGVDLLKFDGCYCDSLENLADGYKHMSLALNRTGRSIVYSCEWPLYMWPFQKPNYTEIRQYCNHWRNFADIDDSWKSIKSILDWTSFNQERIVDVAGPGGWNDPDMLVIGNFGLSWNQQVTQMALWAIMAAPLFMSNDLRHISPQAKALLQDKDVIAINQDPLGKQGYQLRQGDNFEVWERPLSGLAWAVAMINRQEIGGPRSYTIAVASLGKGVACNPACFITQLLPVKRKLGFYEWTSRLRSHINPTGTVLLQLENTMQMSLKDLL
* hit, by the source's call; ? = inconclusive; nt = not tested or not shown.

SMILES | Rango-impB inh | miR-21 reporter | Rango dissoc inh | GLA inh pH 4.5
COc1cc(OC)cc(C(=O)NNS(=O)(=O)c2ccc(F)cc2)c1 | -2.8% | 0.3% | -2.2% | nt
COc1cc(OC)cc(C(=O)OCC(=O)NC2CCCCCC2)c1 | -0.6% | nt | -8.5% | nt
Cc1ccc(S(=O)(=O)c2nc(S(C)(=O)=O)sc2N2CCC(C(N)=O)CC2)cc1 | 0.3% | 6.1% | -11.2% | nt
COc1cc(/C=N/NC(=O)c2ccccc2NS(=O)(=O)c2cccs2)ccc1O | -3.0% | nt | 0.1% | nt
CC(C)Oc1ccc(C2CC(=O)N(C)C2=O)cc1 (stereo unspecified) | -1.2% | -4.8% | -0.9% | nt
COc1ccc(NC(=O)CNc2cc(S(=O)(=O)N3CCOCC3)ccc2N2CCOCC2)c(OC)c1 | -1.9% | nt | 1.6% | nt
COC(=O)c1ccc(CNC(=O)COC(=O)C2CC3C=CC2C3)cc1 (stereo unspecified) | -0.5% | -0.9% | 0.3% | 3.2
COc1cc2[nH]c(=S)nc(NC3CCCC3)c2cc1OC | nt | -0.8% | nt | 7.2
CNc1ccccc1C(=O)OCC(=O)c1ccc(F)cc1 | -3.6% | -42.3% | -12.0% | 4.9
COc1ccc(-c2csc(N=C(N)N)n2)cc1 | 5.4% | -61.8% | 10.6% | -17.9
Cc1ccc(Cl)cc1NC(=O)NCCN1CCCCC1 | 4.5% | -4.4% | -2.7% | nt
Cc1cccc(-c2ccc(C=Nc3c(C)n(C)n(-c4ccccc4)c3=O)o2)c1 | 0.5% | -12.3% | 1.1% | 0.2
COC(=O)CCC(=O)OC1(C)C(=O)C2=CN(Cc3ccc(OC)cc3)C(c3ccc(OC)cc3)=CC2=C(Br)C1=O (stereo unspecified) | ? | nt | ? | 4.5
Cc1ccc2nc(-c3cccc(NC(=O)c4ccc5c(c4)OCCO5)c3)oc2c1 | -1.4% | -21.1% | -2.3% | 2.4
O=C(CN1CCc2ccccc21)Nc1ccc2c(c1)OCCCO2 | 0.1% | nt | -10.6% | nt

Four structures already listed, sorted by molecular weight, rising.
SMILES | Rango-impB inh | miR-21 reporter | Rango dissoc inh | GLA inh pH 4.5
CC(C)Oc1ccc(C2CC(=O)N(C)C2=O)cc1 (stereo unspecified) | -1.2% | -4.8% | -0.9% | nt
COc1ccc(-c2csc(N=C(N)N)n2)cc1 | 5.4% | -61.8% | 10.6% | -17.9
COC(=O)c1ccc(CNC(=O)COC(=O)C2CC3C=CC2C3)cc1 (stereo unspecified) | -0.5% | -0.9% | 0.3% | 3.2
COc1cc(OC)cc(C(=O)NNS(=O)(=O)c2ccc(F)cc2)c1 | -2.8% | 0.3% | -2.2% | nt

New compounds follow.
SMILES | Rango-impB inh | miR-21 reporter | Rango dissoc inh | GLA inh pH 4.5
CC1CCN(CC(=O)Nc2cccc(Cl)c2)CC1 | 0.5% | -14.0% | -3.6% | -20.3
Cn1c(=O)c2c(O)c(C=Nc3ccc(F)cc3)c(=O)n(C)c2n(C)c1=O | -1.4% | 3.3% | -1.7% | 1.5
CC(C)(C)N=C1NN=C(c2ccc(S(=O)(=O)N3CCCCC3)cc2)CS1 | -3.7% | nt | 4.3% | nt
COC(=O)c1c(NC(=O)CCCC(=O)O)sc(C)c1C | 3.6% | -8.7% | -1.4% | 10.9
O=C(O)CC1C(=O)NCCN1C/C=C/c1ccccc1 (stereo unspecified) | 0.0% | -8.7% | 4.2% | -1.1
COc1ccc(S(=O)(=O)N2CCN(C(=O)c3ccc4ccccc4n3)CC2)cc1 | -2.9% | nt | -3.3% | nt
Cc1ccc(C2NC(=O)NC(O)(C(F)(F)F)C2C(=O)c2ccccc2)o1 (stereo unspecified) | 0.7% | 4.6% | 2.6% | -0.3
CCC(C(=O)NC1CCCCC1)n1nc(C)c2c(C)n(-c3ccccc3)nc2c1=O (stereo unspecified) | 2.9% | 3.3% | -17.3% | nt
CCOC(=O)C1=C(C(=O)OCC)N(CC)CCC1=O | -0.8% | nt | 8.9% | nt
CC(=O)c1ccc(N2C(=O)C3C(C2=O)C(C(=O)c2ccc(Cl)cc2)N2CCCC32)cc1 (stereo unspecified) | ? | -20.7% | ? | -3.4
CC(C)(C)c1ccc(S(=O)(=O)n2c(CN3CCOCC3)nc3ccccc32)cc1 | -1.1% | -3.2% | 4.4% | -2.9
CC(C)[C@H](NC(=O)c1ccccc1F)C(=O)NCCc1ccccc1 | 0.8% | -7.5% | 17.1% | nt
Cc1cc(NCCCn2ccnc2)n2nc(C)c(-c3ccc(Cl)cc3)c2n1 | 4.6% | 28.1% | 4.8% | -15.2
Oc1ccc(C[C@H]2CNCCN2CCc2cccc(F)c2)cc1 | 1.7% | nt | -12.6% | nt
Cc1ccc(CN2C(=O)C3CCCN3c3ncccc32)cc1 (stereo unspecified) | ? | -1.0% | 3.0% | nt

Single records (already shown). Order of values: Rango-impB inh | miR-21 reporter | Rango dissoc inh | GLA inh pH 4.5
CC(C)(C)N=C1NN=C(c2ccc(S(=O)(=O)N3CCCCC3)cc2)CS1 across the screens: -3.7% | nt | 4.3% | nt
Cc1cc(NCCCn2ccnc2)n2nc(C)c(-c3ccc(Cl)cc3)c2n1 across the screens: 4.6% | 28.1% | 4.8% | -15.2
COc1ccc(S(=O)(=O)N2CCN(C(=O)c3ccc4ccccc4n3)CC2)cc1 across the screens: -2.9% | nt | -3.3% | nt
Cc1ccc(C2NC(=O)NC(O)(C(F)(F)F)C2C(=O)c2ccccc2)o1 (stereo unspecified) across the screens: 0.7% | 4.6% | 2.6% | -0.3
CC(C)[C@H](NC(=O)c1ccccc1F)C(=O)NCCc1ccccc1 across the screens: 0.8% | -7.5% | 17.1% | nt

(next part)
SMILES | Rango-impB inh | miR-21 reporter | Rango dissoc inh | GLA inh pH 4.5
Cc1cc(C)cc(NC(=O)C2CCN(c3nc(C)cc(C)n3)CC2)c1 | 1.0% | 0.1% | 0.1% | 2.6
CCCS(=O)(=O)N1CCN(C2CCC(C)CC2)CC1 (stereo unspecified) | 2.9% | -1.4% | 6.4% | 7.6
COc1ccc(Nc2nc(-c3ccc4c(c3)NC(=O)CO4)cs2)cc1 | ? | 25.6% | 2.9% | 5.1
C/C(=N\NC(N)=S)c1cc(-c2ccccc2)c(-c2ccccc2)s1 | -3.2% | 2.4% | 1.7% | nt
Cc1ccc(/C=N/NC(=S)N2CCOCC2)cc1 | -1.0% | -64.6% | 2.4% | -4.1
CCOC(=O)c1ccccc1NC(=S)N1CC(C)CC(C)C1 (stereo unspecified) | 1.6% | -5.1% | 12.9% | -10.1
c1ccc(-c2csc(NC3=NCCCCC3)n2)cc1 | 0.0% | -54.3% | 4.4% | -1.1
O=C(CCSc1ccccc1)Nc1ncccn1 | 0.7% | -9.9% | 1.3% | -2.4
OC(c1nnc(-c2ccccc2)o1)c1cccs1 (stereo unspecified) | -1.9% | -58.4% | -0.4% | 5.9
CCOc1cc(/C=C2\C(=O)N(c3ccc(C(N)=O)cc3)N=C2C)ccc1OC(=O)c1cccs1 | -1.0% | 2.0% | 19.5% | -5.8
COC(=O)c1ccccc1NC(=O)C1CC(c2ccccc2O)=NO1 (stereo unspecified) | 1.7% | -0.4% | 10.2% | -5.3
CC(C)CN(C(=O)C1CCC1)c1c(N)n(Cc2ccccc2)c(=O)[nH]c1=O | -0.1% | nt | 19.4% | nt
CCOC(=O)CNC(=O)c1sc(NC(=O)/C=C/c2ccccc2)nc1C | 0.3% | 2.6% | -11.0% | 3.0
COC(=O)[C@]1(Cc2ccccc2)N[C@H](CN(C)C(=O)c2ccccc2)[C@@H]2C(=O)N(Cc3ccccc3)C(=O)[C@@H]21 | 0.1% | nt | -13.8% | nt
CC(Sc1ccccc1)C(=O)N(CCC#N)Cc1cccnc1 (stereo unspecified) | -2.2% | -1.1% | -14.6% | 5.6
C[C@]12c3[nH]c4ccccc4c3CCN1C(=O)C(CC(=O)NCCc1ccccn1)C[C@@H]2C(=O)N1CCOCC1 (stereo partly specified) | 2.7% | nt | 12.4% | nt
COc1ccc(NS(=O)(=O)c2cccc3nsnc23)cc1OC | -6.7% | 13.3% | 11.8% | -0.3
CCOC(=O)C1(CCCc2ccccc2)CCN(C(=O)CCc2cnccn2)CC1 | -0.9% | 0.5% | -0.5% | 0.0
COc1cc(NC(=O)CCc2nnc3ccc(N4CCOCC4)nn23)cc(OC)c1OC | -1.0% | 0.8% | 0.7% | nt
CCCCNc1c(-c2ccc(-c3ccc(C(C)=O)cc3)c(OC)c2)nc2cnccn12 | ? | nt | ? | nt
COc1ccc(N2C(=O)CC(N3CCN(C4CCc5ccccc5C4)CC3)C2=O)cc1 (stereo unspecified) | ? | -3.8% | 1.0% | 4.5
CC(OC(=O)C1=NN(c2ccccc2)C(=O)CC1)C(=O)NC1CCCCC1C (stereo unspecified) | -3.9% | nt | -11.2% | nt
CCN(Cc1ccc(OC)c(F)c1)C(=O)C1CCCO1 (stereo unspecified) | ? | 0.2% | -1.4% | nt
CCc1noc(C)c1C(=O)N1CCN(S(=O)(=O)c2cc(C)ccc2C)CC1 | -0.8% | -3.4% | -12.3% | nt
COc1cccc(C(c2sc3nc(C)nn3c2O)N2CCN(c3ccccc3F)CC2)c1 (stereo unspecified) | 0.7% | -2.4% | 4.2% | -2.6
CCOC(=O)/C(=N\Nc1ccccc1Cl)N1CC(C)OC(C)C1 (stereo unspecified) | -1.5% | -0.8% | 0.4% | 6.9
COc1ccc(C2=NOC(C(=O)Nc3cccnc3)C2)cc1 (stereo unspecified) | 2.5% | 0.6% | 18.1% | 2.2
CC(=O)Nc1ccc(NC(=O)C(C)OC(=O)[C@@H]2CCCN2C(=O)c2cccs2)cc1 (stereo partly specified) | ? | nt | 1.6% | nt
O=C(NC1CC1)C1=C[C@@H](c2ccc3c(c2)OCO3)C[C@@H](OCCCCO)O1 | 2.9% | -1.0% | -9.0% | -4.5
CCOC(=O)C1CCN(C(=O)c2ccccc2NS(=O)(=O)c2cc(C)ccc2C)CC1 | 0.6% | -7.5% | 3.0% | -7.1
O=C1CCC(C(=O)N2CCOCC2)CN1Cc1ccc(Cl)cc1 (stereo unspecified) | 4.2% | 1.2% | -4.2% | nt
CC(OC(=O)c1cccs1)C(=O)NC1CC1 (stereo unspecified) | 4.1% | -1.0% | 5.8% | nt
CC(C)(C)c1nnc(NC(=O)COc2ccc3c(c2)OCO3)s1 | 1.1% | nt | 8.9% | nt
Cc1ccc2c(c1)c(C)cc(=O)n2CCC(=O)O | -3.5% | -5.4% | -0.3% | nt
CCNC(=O)COC(=O)C1C(C(=O)OCC)=C(C)NC(C)=C1C(=O)OCC | ? | 0.7% | -13.1% | 0.8
CC(/C=C1\SC(=S)N(NC(=O)c2ccc(C)cc2)C1=O)=C\c1ccccc1 | 1.3% | -6.1% | -18.7% | -24.7
Cc1cc(OC(=O)c2ccccc2Cl)cc(=O)n1C | -3.8% | -0.3% | -0.5% | -3.7
COc1ccc(NC(=O)c2c(Cl)nc3ccccn23)cc1 | 9.1% | -48.8% | -23.2% | 5.0
CCCC(=O)N1CCc2[nH]c3ccccc3c2C1 | ? | -5.0% | ? | 3.6
Cc1ccc(Sc2cc(NCCCO)c([N+](=O)[O-])c3nonc23)cc1 | -2.9% | 2.6% | -12.3% | 3.2
CCn1c(SCC(=O)Nc2nccs2)nnc1C1CC1 | 9.6% | -0.3% | ? | nt
Cc1ccc(O)c(C(=O)CC(=O)c2ccc(C(C)(C)C)cc2)c1 | -1.2% | -24.7% | -0.7% | nt
O=C(C1=C[C@H](c2csc3ccccc23)C[C@H](OCCCCO)O1)N1CCN(Cc2ccccc2)CC1 | -6.6% | 9.2% | 1.4% | -6.7
c1ccc(CSc2nc3ncncc3[nH]2)cc1 | 7.8% | -15.3% | -1.1% | 3.8
CCCN(CCC)CCCNC(=O)C1c2cc(OC)c(OC)cc2C(=O)N(C)C1c1cccs1 (stereo unspecified) | 6.7% | -5.9% | 12.7% | 0.9
O=C(N[C@@H](Cc1ccccc1)C(=O)O)c1ccncc1 | 0.3% | 0.2% | -0.1% | -4.4

Some of the compounds tested; count on the stated rates, not on these rows.
